# Assay outcomes deposited in PubChem BioAssay by National Center for Advancing Translational Sciences (NCATS).
# CtBP-E1A inh: inhibitors of CtBP/E1A interaction; activity change, % (concentration not given with the values); 340,000 tested, 0.49% active; AlphaScreen GST-E1A/His-CtBP binding, 1536-well; hits give low values; control for the full effect not named in the record; in the data active means activity change below about -65%; inconclusive means about -30% to -65%; inactive means above about -30%; also: % is scaled to controls: 0 for no effect and ±100 for the full control effect
#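 GST-E1A and His-tagged CtBP (125 nM each as 5X stock) were preincubated with pin-transferred compound for 2 h at 37 °C in the dark, then glutathione donor and nickel acceptor beads were added for 1 h before AlphaScreen reading.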
# Sfp inh: inhibitors of Bacillus subtilis Sfp phosphopantetheinyl transferase; Q9F4F7; Biochemical Sfp PPTase activity, qHTS; Potency, µM, for the others: max response, negative = inhibition, most hits filed as inhibitors; 310,000 tested, 3.5% active; AID 1490; active = well fitted inhibition curve with a large enough effect; inconclusive = small, poorly fitted or top-dose-only effect, or another doubt; inactive = no such curve, though single readings can be large or run the other way;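 also: the enzyme is Sfp with the accession as filed and its product quenches rhodamine fluorescence; potency is read from the fitted curve at half-maximal effect; 0% = enzyme reaction without inhibitor and -100% = no enzyme wells; top concentration of the series not given in the record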
#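 With Hepes-Na pH 7.6 buffer containing 10 mM MgCl2, Sfp (15 nM) modified BHQ-2-YbbR (12.5 uM) using rhodamine-CoA (5 uM). Two reads 30 minutes apart at 525/598 nm yielded each well's rate.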
# Six1-Eya2 inh: Six1/Eya2 interaction inhibition; Q15475+O00167; AID 651725; activity change, % (test concentration not listed); AlphaScreen GST-Six1/His-Eya2 binding, biochemical; hits give low values; control for the full effect not named in the record; 360,000 tested, 0.56% active; in the data active = activity change below about -65%; inconclusive = about -30% to -65%; inactive = above about -30%; also: % is scaled to controls: 0 for no effect and ±100 for the full control effect; compound concentration not given in the record
#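 GST-Six1 + His-Eya2 (5X stock: 250/500 nM); Tris pH 8.0, 300 mM NaCl, 0.05% BSA, 0.02% Tween 20; GSH donor/Ni acceptor beads; 1 h 37 °C dark; AlphaScreen readout.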
# D2 potentiator: human D2 receptor positive allosteric modulation; 360,000 tested, 0.23% active; potentiation, % (no concentration beside the values); P14416; DiscoveRx D2 beta-arrestin cells, luminescence, 90 min; 100% = 57 uM dopamine signal; active = potentiation of 50% or more; inconclusive = 30% to 50%; inactive = 30% or less;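 also: compound concentration not given in the record; tested on top of an EC20 dose of dopamine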
# Target sequence (P14416 whole entry, looked up): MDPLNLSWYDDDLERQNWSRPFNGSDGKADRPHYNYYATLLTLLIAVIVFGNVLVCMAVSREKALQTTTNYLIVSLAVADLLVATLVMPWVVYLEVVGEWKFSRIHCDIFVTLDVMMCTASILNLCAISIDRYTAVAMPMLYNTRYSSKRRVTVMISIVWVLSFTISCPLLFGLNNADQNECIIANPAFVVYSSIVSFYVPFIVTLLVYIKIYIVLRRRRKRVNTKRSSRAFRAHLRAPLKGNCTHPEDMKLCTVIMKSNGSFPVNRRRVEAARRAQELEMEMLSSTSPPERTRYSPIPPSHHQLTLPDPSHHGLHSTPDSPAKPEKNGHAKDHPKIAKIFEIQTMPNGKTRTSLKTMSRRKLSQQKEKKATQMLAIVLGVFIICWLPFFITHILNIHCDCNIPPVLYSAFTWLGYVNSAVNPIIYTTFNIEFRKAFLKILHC
#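 D2 cells co-treated with compound plus 50 nM dopamine (EC20) for 90 min at 37 deg C to detect potentiation. Beta-arrestin recruitment was read as enzyme-fragment luminescence after 1 h at ambient temperature. Full response was set by 57 uM dopamine.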
# PINK1 modulator: changes PINK1 expression; PINK1 immunofluorescence, high-content cytometry, 24 h; Potency, µM (top dose mostly 76.6 µM), for inactives: top-dose activation (PINK1 increase), hits mostly activators; AID 624263; 410,000 tested, 0.2% active; active = well fitted activation curve with a large enough effect; inconclusive = small, poorly fitted or top-dose-only effect; inactive = flat fitted curve, though single readings scatter; cell line not stated here;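 also: potency is read from the fitted curve at half-maximal effect; % of control where 0% means no effect; nearly all actives have a fitted effect of over 65% in size; a mitochondrial uncoupler was the plate control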
#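 Compound titrations (5 concentrations, 24 h) on a stable cell line; DMSO and CCCP controls. Endpoint: fixed-cell PINK1 immunofluorescence with mitochondrial, cell and nuclear markers, scanned by microplate cytometer.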
# D2 ag: activates the human D2 dopamine receptor; AID 624465; 360,000 tested, 0.084% active; activation, % (concentration not given with the values); P14416; DiscoveRx PathHunter D2 beta-arrestin, luminescence, 90 min; 100% = 57 uM dopamine signal; in the data active = activation above about 40%; inconclusive = about 15% to 40%; inactive = below about 15%; also: compound concentration not given in the record; the text of the record calls up to 30% inactive
#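 Agonist mode: compounds alone added to overnight-plated D2 PathHunter cells for 90 min at 37 C, with 57 uM final dopamine (EC100) defining full response. Beta-arrestin recruitment detected by chemiluminescent reagent, read after 1 h at ambient temperature.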
# TRPV1 PAM: human TRPV1 potentiation; TRPV1-expressing cells, Fluo-8 calcium influx, capsaicin EC20 potentiation; host cell line not named in the record; control for the full effect not named in the record; 320,000 tested, 0.02% active; Q8NER1; potentiation, % at 8.33 µM; active means potentiation above 80%; inconclusive means 30% to 80%; inactive means below 30%; also: 0% is about no effect
#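 Fluo-8 calcium influx in TRPV1-expressing cells, kinetic read (ex 480/em 520 nm). Compound added and read 3 min for agonist activity, followed by capsaicin at EC20 final and 2 min further read for enhancement.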
# * = called active by the depositor; ? = inconclusive; · = no result given; [ ] = remark or other dose.
SMILES,CtBP-E1A inh,Sfp inh,Six1-Eya2 inh,D2 potentiator,PINK1 modulator,D2 ag,TRPV1 PAM
Cc1ccc(NC(=O)C2=CCN(S(=O)(=O)c3ccc(F)cc3)CC2)c(C)c1,2,32%[activator],6,-10,7.9%,-2.3,-14
COc1ccc(S(=O)(=O)Cc2ccc(C(=O)NCCCN(C)c3ccccc3)o2)cc1,12,14%,-2,-5,1.1%[38.3 µM],-2.5,22
O=C1OCCC1Sc1nnc(-c2ccc(Cl)cc2)n1Cc1ccccc1 (stereo not given),5,13%,2,-9,6.9%,-1.4,-7
O=C(O)CCC(=O)Nc1ccc(C(=O)OC2CCCCC2)cc1,1,1%,0,2,·,-1.8,·
CCOC(CCn1c(SCC(=O)Nc2cc(C)on2)nc2ccccc2c1=O)OCC,·,16%,7,-9,-0.1%,-3.3,-3
CCOCCCNS(=O)(=O)Cc1ccccc1,4,6%,5,-4,0.9%[38.3 µM],0.1,6
COc1ccccc1CNN,-6,-5%,-6,14,7.4%,-4.4,1
Cc1ccc(S(=O)(=O)N2C[C@@H]3CCCC[C@@H]3[C@@H](C)[C@H]2c2cn(Cc3ccccc3)c3ccccc23)cc1,4,·,-6,·,-0.4%,0.3,·
Cc1cc(C(C)(C)C)oc1C(=O)N(CC(=O)NC1CCCC1)c1cccc(C(F)(F)F)c1,6,19%,-1,-11,-0.2%[38.3 µM],-3.5,-18
COc1ccc(OC)c(C(=O)COC(=O)c2cccnc2Cl)c1,-3,4%,2,-5,1.6%,-2.0,-5
Cc1cc2cc(CCNC(=O)CCc3ccccc3)c(=O)[nH]c2cc1C,-1,8%,-18,-2,1.2%,-4.9,23
COc1ccc(S(=O)(=O)Nc2ccc(Oc3ncccn3)c(Cl)c2)cc1,2,10%,-1,4,0.1%,-1.8,11
COc1cc(-c2nc(-c3ccccc3)c(-c3ccc(F)cc3)[nH]2)cc2c1OCO2,?,7%,?,-22,13%,0.9,-5
COc1cc(OC)cc(C(=O)Nc2nnc(SCC(=O)NCc3ccco3)s2)c1,13,-2%,8,-7,0.6%,2.8,1
Cc1cc(C(=O)Nc2cccc3c2O[C@@H](CN(C)S(=O)(=O)c2ccccc2)[C@H](C)CN([C@@H](C)CO)C3=O)n(C)n1,5,·,-2,-4,-0.5%,2.2,·
CSc1ccc(CCNS(=O)(=O)c2csc(C(N)=O)c2)cc1,-1,10%,2,-13,-0.2%,-3.4,11
CCCCn1nnnc1C(c1ccccc1)N1CCN(c2ccc(F)cc2)CC1 (stereo not given),4,·,-15,·,-0.4%,·,·
Cc1ccc(N2CCN(S(=O)(=O)c3c(C)noc3C)CC2C)cc1 (stereo not given),-5,7%,-6,6,0.9%,2.8,-2
Cc1cccc(C)c1NC(=O)CSc1nc(-c2ccco2)cc(C(F)(F)F)n1,2,6%,2,-14,·,3.9,11
CCCCN=C(N)/C(C(=O)OCC)=C(\O)c1ccc(OC)cc1,-4,-6%,6,-1,-0.3%,-2.3,9
O=C(Cn1cc(COc2cccc([N+](=O)[O-])c2)nn1)c1ccc(O)cc1,0,·,-7,-12,-0.6%,-3.8,·
Cc1cccc(/C=N\NC(=O)c2sccc2-n2cccc2)c1,-14,?,-4,-15,-0.5%,-4.3,-12
CCOc1c(C=C(C#N)C#N)c2ccccc2n1CC,7,50µM*,0,-2,1.3%,-3.8,-11
CCC(=O)NC(Cc1ccccc1)c1nc2ccccc2[nH]1 (stereo not given),6,-3%,3,1,6.5%,-1.4,-3
CCCCN(C)CCn1c(=S)[nH]c2cc(OCC)c(OCC)cc2c1=O,0,3%,11,-31,0.8%,-5.6,8
CCc1cc([N+](=O)[O-])cc(CC)c1N,2,8%,-1,-14,0.0%,-2.0,9
COc1ccc(NC(=O)N(C)C[C@H]2Oc3c(NS(=O)(=O)c4ccc(OC)cc4)cccc3C(=O)N([C@H](C)CO)C[C@@H]2C)cc1,0,·,6,-11,-0.8%,0.1,·
COC(=O)C1=C(C)Nc2sc(C(N)=O)c(N)c2C1c1ccncc1 (stereo not given),·,?,1,-12,0.5%,-1.2,11
O=C(/C=C/c1ccccc1)N(Cc1cccs1)C1CCS(=O)(=O)C1 (stereo not given),10,9%,4,-2,0.4%,2.5,-10
COc1ccc(C(=O)Nc2ccccc2)cc1S(=O)(=O)NCc1ccco1,-9,16%,-4,-2,1.6%,-3.0,-2
O=C(Nc1ccc(Cl)cc1)C(c1ccccc1)N1CCOCC1 (stereo not given),·,-1%,10,-8,1.2%,-6.2,10
COC(=O)C1=C(C)OC(N)=C(C#N)C1c1cccnc1 (stereo not given),3,11%,0,-1,-0.8%,-1.9,12
Cc1cc(=O)oc2c1c(C)nn2-c1ccc(Cl)cc1,0,5%,1,-7,4.8%,-1.5,-1
COc1cccc(C(=O)Nc2ccc3c(c2)C(=O)N(CC2CCCO2)C3=O)c1 (stereo not given),5,5%,-7,20,2.1%,-2.1,-10
Cc1cc(C)n2ncc(C(=O)NC3CCCCC3)c2n1,6,8%,-4,-5,-0.5%,0.3,-8
C=CCOC(=O)Nc1c(C(=O)OC)[nH]c2ccccc12,-14,-9%,-25,-18,-1.2%,1.4,-10
CC(=O)Nc1cccc(NC(=O)CCNC(=O)c2ccccc2)c1,3,6%,3,-5,1.5%,-3.2,5
CCOC(=O)C1(CCCc2ccccc2)CCN(C(=O)CCc2cnn(C)c2)CC1,9,10%,-6,-12,1.1%,-1.2,-11
Cc1nn(-c2ccccc2)c(C)c1C(=O)OCc1ccc(C#N)cc1,·,-10%,11,-5,0.4%,-0.5,-23
Cc1noc(C)c1NC(=O)N(C)C[C@H]1Oc2ccc(NC(=O)NC(C)C)cc2C(=O)N([C@H](C)CO)C[C@@H]1C,8,·,-4,-3,0.5%,-1.4,·
Cc1ccc(CONC(=O)c2ccc(OC(F)F)cc2)cc1,3,3%,9,-7,0.4%,-6.7,-22
O=C(CCNS(=O)(=O)c1ccc(Br)s1)N1CCCCC1,13,10%,0,-6,-1.0%,-2.0,1
CC1CCCN(C(=O)COC(=O)c2ccc(=O)n(Cc3ccccc3)n2)C1 (stereo not given),-3,·,5,-12,6.9%,-4.3,26
CCN(CC)C(=O)CCc1nnc(Cc2cccc(C(F)(F)F)c2)o1,0,1%,0,-20,-1.3%,3.2,-2
CCOC(=O)C1CCCN(C(=O)Cc2ccc(Cl)cc2)C1 (stereo not given),0,7%,-1,-7,0.3%,-1.9,-8
CN1/C(=C\C(=O)c2cncc(Br)c2)C(C)(C)c2ccccc21,68,-5%,58,-25,1.8%,-2.4,-8
Cc1ccc(/C(O)=C2/C(=O)C(=O)N(Cc3cccnc3)C2c2ccccn2)cc1 (stereo not given),-1,23%,-7,-8,-0.9%,-4.7,0
CC1CCN(C(=O)c2nc[nH]c2C(=O)N2CCc3ccccc3C2)CC1,8,·,3,1,-0.1%,0.6,2

# 12 compounds already listed, ordered by number of heavy atoms, low to high:
SMILES,CtBP-E1A inh,Sfp inh,Six1-Eya2 inh,D2 potentiator,PINK1 modulator,D2 ag,TRPV1 PAM
Cc1cc(=O)oc2c1c(C)nn2-c1ccc(Cl)cc1,0,5%,1,-7,4.8%,-1.5,-1
Cc1cc(C)n2ncc(C(=O)NC3CCCCC3)c2n1,6,8%,-4,-5,-0.5%,0.3,-8
CCOC(=O)C1CCCN(C(=O)Cc2ccc(Cl)cc2)C1 (stereo not given),0,7%,-1,-7,0.3%,-1.9,-8
CN1/C(=C\C(=O)c2cncc(Br)c2)C(C)(C)c2ccccc21,68,-5%,58,-25,1.8%,-2.4,-8
CC(=O)Nc1cccc(NC(=O)CCNC(=O)c2ccccc2)c1,3,6%,3,-5,1.5%,-3.2,5
CCN(CC)C(=O)CCc1nnc(Cc2cccc(C(F)(F)F)c2)o1,0,1%,0,-20,-1.3%,3.2,-2
CC1CCN(C(=O)c2nc[nH]c2C(=O)N2CCc3ccccc3C2)CC1,8,·,3,1,-0.1%,0.6,2
CC1CCCN(C(=O)COC(=O)c2ccc(=O)n(Cc3ccccc3)n2)C1 (stereo not given),-3,·,5,-12,6.9%,-4.3,26
COc1cccc(C(=O)Nc2ccc3c(c2)C(=O)N(CC2CCCO2)C3=O)c1 (stereo not given),5,5%,-7,20,2.1%,-2.1,-10
Cc1ccc(/C(O)=C2/C(=O)C(=O)N(Cc3cccnc3)C2c2ccccn2)cc1 (stereo not given),-1,23%,-7,-8,-0.9%,-4.7,0
CCOC(=O)C1(CCCc2ccccc2)CCN(C(=O)CCc2cnn(C)c2)CC1,9,10%,-6,-12,1.1%,-1.2,-11
Cc1noc(C)c1NC(=O)N(C)C[C@H]1Oc2ccc(NC(=O)NC(C)C)cc2C(=O)N([C@H](C)CO)C[C@@H]1C,8,·,-4,-3,0.5%,-1.4,·

# (next part)
SMILES,CtBP-E1A inh,Sfp inh,Six1-Eya2 inh,D2 potentiator,PINK1 modulator,D2 ag,TRPV1 PAM
COc1ccc(N2CCN(C(=O)CSc3ncccc3-c3nc4ccccc4[nH]3)CC2)cc1,-2,1%,-14,7,?,-1.1,3
O=C(c1ncc[nH]1)c1cccs1,0,6%,-17,-9,1.1%,-5.6,-12
c1ccc(-c2noc(-c3cccnc3)n2)cc1,11,8%,7,-2,16%[38.3 µM],-4.0,-3
CC(=O)Nc1c(-c2ccc3ccccc3c2)nc2ccccn12,-14,7%,-1,-15,-0.3%,-3.3,-14
